Mtb hypoxia inh: Mtb hypoxia fluorescent reporter inhibition | AID 1159583 | fluorescence inhibition, % (test concentration not listed) | M. tuberculosis hypoxia-regulated fluorescent reporter, fluorescence | 0.1% of 300,000 active;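 active means 35 to 45% if threefold the growth effect, above 45% if 1.5-fold the growth effect; inactive means the rest, general growth blockers included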;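 further: wells of about 50 µL received 100 nL stock; 0% = vehicle wells and 100% = reference inhibitor wells; whole bacteria with a GFP reporter of the hypoxia response; strong numbers were not always called active; many hits fall short of the cut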
Sa RN4220 lethal: S. aureus RN4220 growth inhibition; 0.33% of 330,000 active; OD600, 16 h; inhibition, % (concentration not given with the values); AID 1259311;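 active means z-score of -3 or lower and OD600 up to 0.18 on both plates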;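 further: plate controls were untreated cells for no effect and reference antibiotic for full effect; stock transfer was 100 nL into about 80 µL; one replicate is shown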
Sa ugtP lethal: compounds lethal to S. aureus RN4220 ugtP deletion mutant; 0.54% of 330,000 active; OD600 growth, 16 h; some inactives read as strong as hits; growth inhibition, % (test concentration not listed); AID 1259309;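 active means z-score under -3 and OD600 up to 0.15 on both plates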;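 further: plate controls were untreated wells for no effect and antibiotic for full effect; wells of about 80 µL received 100 nL stock; the first replicate is given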
BJeLR viability: kills HRASV12-expressing BJeLR cells; 0.17% of 300,000 active; BJeLR (HRASV12) viability, CellTiter-Glo ATP luminescence, 48 h; reference of the scale not given here; inhibition, % (concentration not given with the values);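 active means replicate mean above 50%; inconclusive means above 50% but judged a plate artefact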;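 further: 50 nL library stock added to about 25 µL; numbers are from one replicate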
Autofluor counter: counter-screen for toxin protease inhibitors: compound fluorescence | compound autofluorescence counterscreen, microsphere flow cytometry; stronger effect = higher value | fluorescence intensity (no concentration beside the values) | 3.1% of 360,000 active | AID 624483;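 active means at least 3 SD above the mean of all compounds, about 16000 in these data; inconclusive means too few beads counted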;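 further: 100 nL of 1 mM stock went into each well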
PrP 5UTR inh: inhibition of PrP 5' UTR reporter expression. cell-based PrP 5' UTR mRNA reporter, plate reader. inhibition, % (no concentration beside the values). 0.35% of 340,000 active. AID 488862;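 active means every replicate at 50% or more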;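 further: 0 = median of the neutral control wells; tested in H4 reporter cells; numbers are from one replicate; inactives centre near -14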
Mtb hypoxia inh growth: recorded beside Mtb hypoxia inh, whose call it bears; growth inhibition, %; measured here: M. tuberculosis growth (absorbance);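 0% = vehicle and 100% = reference antibiotic; read after six days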
* marks the source's active call; other numbers are inactive results; ? = inconclusive; . = no result given. Compounds as they come. About 4% of those tested had a hit in this group.

SMILES | Mtb hypoxia inh | Mtb hypoxia inh growth | Sa RN4220 lethal | Sa ugtP lethal | BJeLR viability | Autofluor counter | PrP 5UTR inh
CN(O)/C=c1/ccc2c(n1)C(=O)C=CC=2 | . | . | 3.7 | 2 | -12 | 2142 | -10
Cc1cccc(-n2ncc3c(NCCN4CCOCC4)ncnc32)c1 | . | . | -0.9 | -3 | 8 | 4872 | -27
Cc1noc2ncnc(Oc3ccccc3Cl)c12 | 2 | 1 | 7.1 | 3 | -1 | 4412 | -3
Cc1cccc(-n2c(SCC(=O)N3CCCC3)nc3n[nH]c(C)c3c2=N)c1 | 1 | -4 | 3.1 | -5 | . | 22446* | -1
O=C(CSc1cc([N+](=O)[O-])cc(S(=O)(=O)Cc2ccccc2)c1)NC1CC1 | 7 | 5 | 1.9 | 8 | -8 | 2112 | -7
C/C(=N/NS(=O)(=O)c1ccc(Br)cc1)c1ccc(C)o1 | . | . | . | . | -1 | 2560 | -29
O=C(CSc1nnc(NC(=O)c2c(F)cccc2F)s1)NC1CCCC1 | 4 | -7 | -2.5 | 13 | 1 | 4859 | -10
S=C(Nc1ccccc1Cl)N(Cc1ccccc1)Cc1cccnc1 | 2 | 0 | 8.0 | 18 | -1 | 3370 | 0
CCSc1ncnc2sc3c(c12)CCC3 | 3 | 4 | 7.1 | 11 | 7 | 20242* | -10
CSCC[C@H](NC(=O)Nc1cccc(Br)c1)C(=O)O | 3 | 11 | 4.8 | -3 | 13 | 3557 | -18
O=[N+]([O-])c1ccc(CN2CCCCCC2)s1 | 5 | 7 | 10.0 | 2 | 0 | 2491 | -26
COc1cccc(CNC(=O)c2cc3c(cc2Cl)N2CCCCCC2=NS3(=O)=O)c1 | -5 | 6 | 2.0 | -1 | -1 | ? | -16
COC(=O)c1cccc(C(=O)Nc2ccc(F)cc2)n1 | 14 | 2 | -0.2 | 8 | 12 | 7312 | -2
Nc1nc2ccc(S(=O)(=O)c3ccc4nc(N)sc4c3)cc2s1 | 4 | -5 | 1.4 | -6 | -3 | 2413 | -8
CCC1(CC(C)c2ccccc2)C(=O)NC(=O)NC1=O (stereo not drawn) | -3 | 1 | 7.7 | 13 | . | 3027 | -7
CC1CC(C)(C)NC(=S)N1CCC(=O)N1CCc2ccccc2C1 (stereo not drawn) | 13 | 3 | -2.5 | 7 | -12 | 3687 | 1
COc1ccc(S(=O)(=O)N(CC(=O)Nc2cc(C)on2)Cc2ccccc2)cc1 | 6 | -4 | 1.7 | -2 | -2 | 3325 | 1
CN(Cc1ccccc1)C(=O)CCC(=O)N(C)Cc1ccccc1 | 6 | 0 | -10 | -2 | -7 | 3467 | -13
CCS(=O)(=O)c1nc(S(=O)(=O)c2ccc(C)cc2)c(NCCCn2ccnc2)s1 | 2 | -3 | 3.0 | 7 | 11 | 6259 | -10
COc1ccc(/C=N/NC(=O)CNC(=O)c2ccc3c(c2)OCCO3)cc1OC | . | . | . | . | -2 | 2304 | -13
CC(C)N(CCC#N)C(=O)Nc1ccc2c(c1)CCO2 | 13 | -2 | 3.4 | 10 | 5 | 5996 | -6
Cc1ccccc1CN1CCNC(=O)C1CC(=O)O (stereo not drawn) | 0 | 9 | -1.1 | 6 | -8 | 5214 | 1
CC1(C)CC(=O)C2=C(C1)OC1=C(C(=O)CC(C)(C)C1)C2c1ccccc1 | 0 | 0 | 5.1 | -8 | -9 | 9535 | -10
COc1ccc(Cl)cc1C(=O)NNC(=S)NC(=O)c1ccc(F)c(F)c1 | -1 | -5 | 16 | 13 | 5 | 4146 | -15
c1ccc(-c2nnc(-c3ccccn3)s2)nc1 | -3 | 0 | 2.2 | 1 | 14 | . | 9

Later entries
SMILES | Mtb hypoxia inh | Mtb hypoxia inh growth | Sa RN4220 lethal | Sa ugtP lethal | BJeLR viability | Autofluor counter | PrP 5UTR inh
CC(C)CN(C(=O)C(c1ccccc1)c1ccccc1)c1c(N)n(CC(C)C)c(=O)[nH]c1=O | 6 | 5 | 0.8 | 2 | -3 | 4376 | -23
COC(=O)c1ccc2c(CCO)c[nH]c2c1 | 10 | 2 | 5.6 | -2 | -8 | 3028 | -43
Cc1cccc(N2C(=O)C3C(c4ccccc4)OC4(C(=O)c5ccccc5C4=O)C3C2=O)c1 (stereo not drawn) | 7 | 3 | 8.6 | -5 | 16 | 11480 | -17
COc1ccccc1CN(C(=O)Cc1cccs1)C(C(=O)NC1CCCC1)c1ccncc1 (stereo not drawn) | -3 | -6 | 8.7 | 2 | 20 | 7811 | -10
COc1ccc(/C=C/C(=O)Nc2ccc(C)cc2)cc1S(=O)(=O)N1CCOCC1 | 3 | -11 | -2.2 | 0 | 17 | 4896 | -76
CCOC(=O)N1CCN(C(=O)c2ccc3c(c2)N=C(CC)c2cc(C)ccc2S3)CC1 | 5 | 1 | 3.4 | 4 | -5 | 5852 | -13
Cc1ccc(C)c(N(CC(=O)NCc2ccco2)C(=O)CNS(=O)(=O)c2ccc(F)cc2)c1 | 0 | 0 | 1.2 | 1 | -7 | 4700 | 11
COc1ccccc1/C=C\C=N\NC(=O)c1ccco1 | . | . | . | . | -3 | 2183 | -55
CCN(CC)C(=O)c1cccc(NC(=O)c2cc(C3CC3)nc3c2cnn3C(C)C)c1 | 9 | 10 | 3.0 | 1 | . | 5520 | 5
Cn1cc(C(=O)NS(=O)(=O)Nc2ccc(Br)cn2)c2ccccc21 | -6 | -3 | 3.2 | 2 | -3 | 4453 | -21
COC(=O)C1[C@H]2SC(C)(C)C(C(=O)OC)N2C(=O)N1Cc1nc2ccccc2s1 (stereo partly drawn) | . | . | . | . | -10 | 3922 | -70
O=c1ccc(-c2nc3ccccc3n2Cc2ccc(Cl)cc2)c[nH]1 | 2 | 11 | 3.4 | -2 | 10 | 3894 | -22
COc1cc(OC)c(C2=NOC(C(=O)Nc3ccc4c(c3)OCO4)C2)cc1Cl (stereo not drawn) | 0 | -5 | -0.6 | -3 | 15 | 3959 | -21
NC(=O)C1=C(c2ccccc2)c2ccccc2C1=O | 15 | 8 | 81 | 64 | . | 2916 | -6
COC(=O)C1(CCSC)NC(c2ccc(O)cc2)C2C(=O)N(c3ccc(F)cc3)C(=O)C21 (stereo not drawn) | -5 | 9 | 3.2 | 6 | -2 | 3136 | -11
CC(CC(=O)NCc1cccnc1)c1ccccc1 (stereo not drawn) | 17 | 5 | -11 | 0 | -15 | 3071 | -10
CC(C)NC(=S)NN=C1CCCCc2ccccc21 | -1 | -3 | 1.1 | 31 | . | . | .
CCCCN(C(=O)CSCC(=O)Nc1cccc(C)c1)c1c(N)n(Cc2ccccc2)c(=O)[nH]c1=O | . | . | . | . | -7 | 5413 | -4
CCCSc1nc2c(c(=O)[nH]c(=O)n2C)n1Cc1ccccc1 | -4 | 0 | 3.5 | -2 | -2 | 4071 | -18
O=C(NCCCO)C(=O)NCc1ccncc1 | 7 | -2 | 7.2 | -6 | -12 | 4953 | -18
CCc1nnc(NC(=O)CSc2nccn2-c2ccccc2)s1 | 9 | 2 | 4.8 | 4 | 1 | 9284 | -14
COC(=O)c1sc(S(=O)(=O)NCc2cccs2)c(C(=O)OC)c1C | 2 | 4 | 8.9 | -11 | -5 | 6114 | -16
Cc1sc2ncn(CC(=O)NCCc3ccccc3)c(=O)c2c1C | . | . | 10 | 3 | 13 | 3705 | -13
CC(=O)Oc1ccc(/C(C)=N/N2CCN(Cc3ccc(C)cc3)CC2)cc1 | . | . | . | . | 2 | 3044 | -8
Cc1nnsc1S(=O)c1ccc(Br)cc1 (stereo not drawn) | 16 | -11 | -0.7 | 6 | -5 | 3878 | -6

Sorted by formula weight (highest first): part of the list above.
SMILES | Mtb hypoxia inh | Mtb hypoxia inh growth | Sa RN4220 lethal | Sa ugtP lethal | BJeLR viability | Autofluor counter | PrP 5UTR inh
COc1ccccc1CN(C(=O)Cc1cccs1)C(C(=O)NC1CCCC1)c1ccncc1 (stereo not drawn) | -3 | -6 | 8.7 | 2 | 20 | 7811 | -10
CCOC(=O)N1CCN(C(=O)c2ccc3c(c2)N=C(CC)c2cc(C)ccc2S3)CC1 | 5 | 1 | 3.4 | 4 | -5 | 5852 | -13
CCN(CC)C(=O)c1cccc(NC(=O)c2cc(C3CC3)nc3c2cnn3C(C)C)c1 | 9 | 10 | 3.0 | 1 | . | 5520 | 5
CCc1nnc(NC(=O)CSc2nccn2-c2ccccc2)s1 | 9 | 2 | 4.8 | 4 | 1 | 9284 | -14
CC(C)NC(=S)NN=C1CCCCc2ccccc21 | -1 | -3 | 1.1 | 31 | . | . | .

Other structures follow.
SMILES | Mtb hypoxia inh | Mtb hypoxia inh growth | Sa RN4220 lethal | Sa ugtP lethal | BJeLR viability | Autofluor counter | PrP 5UTR inh
Cc1ccc(N2CC(C(=O)NCc3ccc(C)n3C)CC2=O)cc1 (stereo not drawn) | -1 | 7 | 2.8 | 1 | -13 | 4106 | -17
Cc1nc2ncnn2c(C)c1Cc1c(Cl)cccc1Cl | 6 | 5 | 1.5 | -4 | 2 | 4529 | -2
CNC(=S)N(CCc1c(C)[nH]c2ccc(C)cc12)Cc1cc(OC)c(OC)c(OC)c1 | 6 | 10 | 5.7 | -5 | -2 | 4337 | 0
O=C(COC(=O)c1ccccc1NS(=O)(=O)c1cccs1)NCC12CC3CC(CC(C3)C1)C2 | 8 | -2 | -3.0 | -21 | 8 | 2550 | -25
COc1ccc(N2CCN(CCC3Oc4cc([N+](=O)[O-])ccc4NC3=O)CC2)cc1 (stereo not drawn) | 6 | 5 | 2.1 | 6 | 10 | 3599 | -5
COC(=O)c1ccc(NC(=O)c2cccc(NC(=O)c3ccccc3)c2)cc1 | -1 | -1 | 4.0 | -7 | 2 | 3746 | -14
Cc1nc2ccc(S(=O)(=O)NCC(=O)Nc3cccc(F)c3)cc2s1 | 5 | 5 | 3.1 | -2 | 6 | 4508 | 15
Cn1c(SCc2ccc([N+](=O)[O-])cc2)nc2c(c1=O)SCC2 | 7 | 5 | 3.5 | 2 | 0 | 4414 | -24
COc1ccc(CN2C(=O)c3ccccc3C2C(=O)NC2CCCCCC2)c(OC)c1 (stereo not drawn) | 0 | -3 | 4.6 | -1 | -7 | 3537 | -22
COc1ccc(CNC(=O)CN(C)CC(=O)Nc2ccccc2Br)cc1 | 26 | 8 | 3.5 | 3 | . | 2943 | -12
CN1C(=O)/C(=C2/C=CC=CN2C)OC1=S | 3 | 6 | -1.7 | -4 | 1 | ? | -16
CCOC(=O)c1[nH]c(=O)[nH]c1CSCCO | . | . | -3.0 | 0 | 1 | 2343 | -17
Cc1nc(-c2nnc(-c3ccccc3)o2)c(C(F)(F)F)o1 | 12 | 9 | 0.8 | -3 | 9 | 5783 | -4
O/N=C/c1cc(Br)ccc1OCc1cccc(F)c1 | . | . | . | . | 13 | 4954 | -4
CCCN(CC(=O)Nc1ccc(C(N)=O)cc1)CC(=O)Nc1ccc(Cl)cc1Cl | -2 | -4 | 0.4 | 0 | 8 | 2653 | -21
Cc1ccc(S(=O)(=O)N2CCC(C(=O)NCC(C)(C)N3CCOCC3)CC2)c(C)c1 | 5 | 7 | -0.2 | 2 | . | 5387 | -19
CCOc1ccc(NC(=S)NCCN2CCN(Cc3ccccc3)CC2)cc1 | -2 | -9 | 8.3 | 2 | 6 | 4089 | -11
Cc1nc(N)[nH]c(=O)c1CCCNc1ccc([N+](=O)[O-])cc1 | 1 | 5 | 1.5 | 2 | . | 3896 | -12
Cc1c(CN(C)C(=O)c2sc3cc(Cl)ccc3c2Cl)cnn1C | . | . | 15 | 1 | 7 | 4104 | -16
O=C(O)C12CC3CC(C1)CC(n1ncc(NCc4ccco4)c(Cl)c1=O)(C3)C2 | 15 | 5 | 2.1 | 1 | 2 | 4463 | -23
Cc1ccsc1-c1nc(CN2CCCC2c2ccc(F)cc2)c(C)o1 (stereo not drawn) | . | . | . | . | 12 | 6291 | -11
CCN(C)c1ccc(/C=N\n2nnnc2N)cc1 | . | . | . | . | 0 | 3813 | -92
NC(=O)N[C@@H](Cc1c[nH]c2ccccc12)C(=O)OCC(=O)N1CCCCC1 | -8 | -1 | 2.5 | 1 | -3 | 2475 | -1
O=C(O)CCn1cc(-c2ccc(F)cc2)nc1-c1ccncc1 | -1 | 7 | 1.9 | -10 | . | 3976 | -3
Cn1c(-[n+]2c(-c3ccccc3)cc(-c3ccccc3)cc2-c2ccccc2)nc2c([N+](=O)[O-])cccc21 | 18 | 10 | 26 | 18 | 3 | 7108 | -21
COc1ccc(CC(=O)NC(C)c2ccc(S(N)(=O)=O)cc2)cc1S(=O)(=O)N1CCOCC1 (stereo not drawn) | 13 | 4 | 3.8 | 1 | 6 | 6177 | -11

Screening results deposited in PubChem BioAssay by several laboratories.
